Source: PubChem BioAssay
HNF4A DNA FP: change in binding of human HNF4 alpha to DNA | P41235 | HNF4a-FITC DNA binding, fluorescence polarization, 1 h | activity change, % at 10 µM | 360,000 compounds, 0.3% hits; in the data active = activity change above about 30%, passing the limit was not always enough;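 also: controls were the assay level and a saturating level of protein; the project sought stronger binding though the title names inhibitors; some compounds called inactive have numbers as strong as hits; positive values seem to mean higher polarization but the record does not say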
Target sequence (P41235 whole entry, looked up): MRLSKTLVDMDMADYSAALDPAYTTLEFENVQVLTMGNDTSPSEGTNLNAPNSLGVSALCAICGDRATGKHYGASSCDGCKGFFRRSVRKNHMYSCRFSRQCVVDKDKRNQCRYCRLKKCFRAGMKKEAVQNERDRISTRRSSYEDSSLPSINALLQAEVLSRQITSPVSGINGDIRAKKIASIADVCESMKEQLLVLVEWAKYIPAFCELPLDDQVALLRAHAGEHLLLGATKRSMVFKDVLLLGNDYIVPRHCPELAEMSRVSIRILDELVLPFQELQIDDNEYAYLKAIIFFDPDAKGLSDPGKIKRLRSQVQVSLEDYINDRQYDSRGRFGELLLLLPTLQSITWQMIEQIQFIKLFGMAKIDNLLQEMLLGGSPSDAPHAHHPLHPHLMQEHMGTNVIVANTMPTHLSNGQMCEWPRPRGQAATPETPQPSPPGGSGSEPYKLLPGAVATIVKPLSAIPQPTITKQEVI
AF4-AF9 inh: inhibitors of human MLL-AF4/AF9 interaction. inhibition, % at 10 µM. AlphaScreen, biotin-AF4 peptide binding to FLAG-AF9. 350,000 compounds, 0.47% hits. P42568. AID 651704;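 active = every replicate reaching a set inhibition limit, whatever the replicate mean, cut at about 25% in these data; inconclusive = mean inhibition reaches that limit but some replicates miss it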;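 also: 0% = plate neutral control median and 100% = total signal loss; the record names both 10 and 1 µM as test concentration; the first replicate is given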
Target sequence (P42568 whole entry, looked up): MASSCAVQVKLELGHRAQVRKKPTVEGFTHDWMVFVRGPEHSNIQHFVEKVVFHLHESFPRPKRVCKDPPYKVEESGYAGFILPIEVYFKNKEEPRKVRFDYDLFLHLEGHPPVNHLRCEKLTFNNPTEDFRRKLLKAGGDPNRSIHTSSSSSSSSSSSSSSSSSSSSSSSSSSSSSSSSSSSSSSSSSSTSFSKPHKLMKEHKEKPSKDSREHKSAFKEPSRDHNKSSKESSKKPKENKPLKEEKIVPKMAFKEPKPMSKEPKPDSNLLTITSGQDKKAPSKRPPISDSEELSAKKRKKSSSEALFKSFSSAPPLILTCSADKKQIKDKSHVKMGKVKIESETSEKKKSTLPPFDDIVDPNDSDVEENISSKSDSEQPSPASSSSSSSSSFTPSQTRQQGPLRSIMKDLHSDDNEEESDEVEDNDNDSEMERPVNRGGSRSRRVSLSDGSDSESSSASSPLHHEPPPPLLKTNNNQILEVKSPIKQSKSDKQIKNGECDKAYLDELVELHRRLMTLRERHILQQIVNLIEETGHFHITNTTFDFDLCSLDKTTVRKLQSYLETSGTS
Vif TR-FRET: HIV-1 Vif–A3G interaction blockers – biochemical, TR-FRET, GST-Vif 1-94, biotin-A3G peptide, dose response retest, primary screen (AID 1117319). TR-FRET GST-Vif / biotin-A3G peptide binding; higher % means a stronger effect; test concentration not given here; strong numbers were not always called active. one-dose inhibition, %; IC50 in µM for titrated hits. 260,000 compounds, 0.57% hits;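 active = above the screen mean plus three standard deviations and confirmed in dose response; inconclusive = results disagree or hit not tested in dose response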;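 also: Vif residues 1-94 fused to GST binding biotinylated APOBEC3G peptide 110-148; 0% = full assay without inhibitor and 100% = GST in place of GST-Vif; retest series ran down from 100 µM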
Ecoli growth: blocks Escherichia coli growth; OD600, 23 h; active compounds read low; OD600 absorbance (concentration not given with the values); 330,000 compounds, 0.21% hits;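 active = OD600 absorbance below the run mean of sample wells minus 3.6 SD, in any replicate, cut at about 0.56 in these data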;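 also: stock transfer was 300 nL into about 60 µL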
FGF22 binding: FGF22 (human) thermal shift binding | 340,000 compounds, 1.5% hits | AID 651658 | Q9HCT0 | recombinant FGF22 thermal shift, SYPRO orange fluorescence; percent of sucrose octasulfate shift, DMSO zero | calls only at 9.99 µM;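 active = melting point raised past a set limit in the mean and every replicate; inconclusive = no clear call; three in four hits are not shown here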
rRNA inh HTS: inhibits bacterial ribosomal RNA function over humanized ribosomes. E. coli WT GFP vs humanized-ribosome RFP mutants, fluorescence, 24 h; active compounds read low; DMSO median 0, no signal -100. GFP signal change (wild-type ribosome), % (no concentration beside the values). 350,000 compounds, 1.6% hits;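 active = significant combined selectivity score with lowered wild-type GFP, culture density cut under 30%, mutant RFP and density less affected; inactive = any of these conditions unmet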; also: one replicate is shown; some compounds called inactive have numbers as strong as hits
ALR inh: human ALR oxidase inhibition via reduced H2O2. P55789. purified ALR, DTT oxidation, H2O2 HRP-luminol luminescence. inhibition, % (no concentration beside the values). 290,000 compounds, 3.8% hits. AID 485317;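 active = mean and each replicate at 75% or more; inconclusive = only one of the two met; inactive = neither met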;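 also: stock transfer was 7.5 nL into about 7.5 µL; 0% = neutral wells and 100% = wells with inactivated enzyme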
rRNA inh HTS OD600: recorded beside rRNA inh HTS, whose call it bears; OD600 change, %; measured here: OD600 growth;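 optical density of the mix in the first replicate; 0 = DMSO median and -100 = no signal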
rRNA inh HTS RFP: second read-out of rRNA inh HTS, no call of its own (marks repeat the call); RFP signal change, %; measured here: RFP humanized mutant strains;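 first replicate; 0 = DMSO median and -100 = no signal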
An asterisk follows results filed as active; i = inactive; ? = inconclusive; . = no result given. These rows are one share of the data; rates above refer to the full screens.

HNF4A DNA FP,rRNA inh HTS,FGF22 binding,ALR inh,rRNA inh HTS RFP,AF4-AF9 inh,Vif TR-FRET,Ecoli growth,rRNA inh HTS OD600,smiles
8.1,-2,i,-6,2.3,13,.,0.63,1,Cc1ccc(Nc2nc(-c3sc(N)nc3C)cs2)cc1
1.7,-1,i,-14,-1.1,-3.5,28%,0.62,8,O=C(O)COCC(=O)NCc1csc2ccc(Cl)cc12
15,3,i,-12,0.7,19,-5%,.,-2,C#CCOCCOCCOCCNc1nc(N2CCN(C(=O)[C@H](C)n3cc(CCCN=C(N)N)nn3)CC2)nc(N2CCN(C(=O)[C@H](C)n3cc(CCCN=C(N)N)nn3)CC2)n1
7.9,.,.,-2,.,.,.,0.65,.,Cc1cccc(-c2noc(CNC(=O)Nc3ccc(F)cc3)n2)c1
.,4,i,-8,-8.0,-3.4,.,0.67,-2,O=C1NC2(CCCC2)C(=O)N1Cc1cc(=O)n2ccsc2n1
0.8,-1,i,-18,-6.2,-1.7,9%,0.7,-12,Cc1cc(C)c(NC(=O)CCCSc2nnc(N)s2)c(C)c1
0.4,10,i,-6,1.3,-51,-4%,0.7,16,CCc1cc(C(=O)NCC(C)(C)N2CCOCC2)sc1C
.,1,i,.,-0.4,-0.9,.,.,4,COCC(=O)Nc1ccc2c(c1)C(=O)N(C)C[C@@H](OC)[C@@H](C)CN(C(=O)COC)[C@H](C)CO2
1.0,.,.,-8,.,.,-6%,.,.,O=C(N/N=C/c1cccnc1)c1ccc([N+](=O)[O-])cc1
1.6,.,.,-7,.,.,-18%,0.71,.,Cc1cccc(-n2c(SCC(=O)N3CCCC3)nc3n[nH]c(C)c3c2=N)c1
-1.9,.,.,1,.,.,24%,0.71,.,COc1ccc(C)cc1NC(=O)CN1CCN(S(=O)(=O)c2ccc(C(C)C)cc2)CC1
1.2,12,i,5,-14,-0.4,-3%,0.65,10,S=c1[nH]nc(-c2ccc(Cl)cc2)n1CCCN1CCOCC1
0.8,7,i,-15,-0.2,-33,1%,.,12,CCOc1ccc(/C=N/NC(=O)c2c(C)n(C)c3ccc(OC)cc23)cc1
.,1,i,.,1.3,0.3,.,.,-3,O=C(C[C@@H]1CC[C@H](NC(=O)CCN2CCCCC2)[C@H](CO)O1)NCc1ccc(Cl)c(Cl)c1
2.5,9,i,.,0.1,0.3,-6%,.,12,CC1CCN(C(=O)c2ncn3c2c(=O)[nH]c2ccc(Br)cc23)CC1
-2.4,-15,i,-20,7.7,-3.3,17%,.,-60,Cc1cccc(C)c1OCc1cc(C(=O)N2CCCCCCC2)no1
-1.8,.,.,.,.,.,-2%,0.67,.,O=C(OCc1cn(-c2ccc(Cl)c(Cl)c2)nn1)c1ccccc1
-2.3,.,.,-14,.,.,0%,0.67,.,Cc1cc(C(=O)COC(=O)c2ccc[nH]c2=O)c(C)n1-c1ccc(F)cc1
2.3,12,i,.,-0.9,-0.9,.,.,17,CC1(C(=O)NS(=O)(=O)c2ccc(Cl)cc2)CCN1C(=O)CCc1cccs1 (centres undefined)
-13,6,i,60,-2.9,3.1,26%,.,16,O=C(CCc1ccc(O)c(O)c1)N/N=C/c1cc2c(cc1[N+](=O)[O-])OCO2
1.4,-3,i,-2,-8.6,2.6,.,.,2,Cc1ccsc1/C=N/n1c(C2CCCCC2)n[nH]c1=S
3.2,-2,i,-4,2.7,-1.3,?,0.7,1,CC(NC(=O)CCc1nnc(CCCc2ccccc2)o1)c1ccccc1 (centres undefined)
3.5,.,.,-5,.,.,3%,0.71,.,O=C(CC1CCCCC1)OCn1nnc2ccccc2c1=O
-3.2,.,.,96*,.,.,5%,0.62,.,O=C(CSC(=S)N1CCOCC1)c1cc2ccccc2oc1=O
-2.2,.,.,-3,.,.,2%,0.71,.,CCOC(=O)CNC(=O)CSc1ncnc2c1cnn2-c1ccc(Cl)cc1

Structural class: those above with an aryl thioether with sulfur outside any ring
HNF4A DNA FP,rRNA inh HTS,FGF22 binding,ALR inh,rRNA inh HTS RFP,AF4-AF9 inh,Vif TR-FRET,Ecoli growth,rRNA inh HTS OD600,smiles
0.8,-1,i,-18,-6.2,-1.7,9%,0.7,-12,Cc1cc(C)c(NC(=O)CCCSc2nnc(N)s2)c(C)c1
1.6,.,.,-7,.,.,-18%,0.71,.,Cc1cccc(-n2c(SCC(=O)N3CCCC3)nc3n[nH]c(C)c3c2=N)c1
-2.2,.,.,-3,.,.,2%,0.71,.,CCOC(=O)CNC(=O)CSc1ncnc2c1cnn2-c1ccc(Cl)cc1

An excerpt of these results, with two lines to a compound:
Every second line gives: HNF4A DNA FP, rRNA inh HTS, FGF22 binding, ALR inh, rRNA inh HTS RFP, AF4-AF9 inh, Vif TR-FRET, Ecoli growth, rRNA inh HTS OD600
O=C(O)COCC(=O)NCc1csc2ccc(Cl)cc12
  1.7, -1, i, -14, -1.1, -3.5, 28%, 0.62, 8
C#CCOCCOCCOCCNc1nc(N2CCN(C(=O)[C@H](C)n3cc(CCCN=C(N)N)nn3)CC2)nc(N2CCN(C(=O)[C@H](C)n3cc(CCCN=C(N)N)nn3)CC2)n1
  15, 3, i, -12, 0.7, 19, -5%, ., -2

Continuation:
HNF4A DNA FP,rRNA inh HTS,FGF22 binding,ALR inh,rRNA inh HTS RFP,AF4-AF9 inh,Vif TR-FRET,Ecoli growth,rRNA inh HTS OD600,smiles
.,0,i,.,-1.5,-0.5,.,.,4,COc1ccc(S(=O)(=O)N[C@@H]2CC[C@H](CCNC(=O)CN3CCOCC3)O[C@H]2CO)cc1
2.4,-3,i,-4,-0.7,0.1,-1%,0.67,2,CC(=O)Nc1ccc(NC(=O)C(C)N(C)CC(=O)Nc2ccccc2Br)cc1 (centres undefined)
-6.3,.,.,-6,.,.,22%,0.7,.,COc1cccc(C2C(C#N)=C(N)Oc3c2oc(CO)cc3=O)c1 (centres undefined)
0.8,-2,i,-14,3.5,-1.0,-2%,0.67,-3,CCN(CC)CCCNC(=O)c1cc2c(=O)[nH]c3ccc(C)cc3c2s1
.,-7,i,.,3.6,-0.6,.,.,-7,CN1C(=O)c2cc(NC(=O)c3ccc(F)cc3)ccc2OC[C@@H]2O[C@@H](CC(=O)NCC3CCCCC3)CC[C@@H]21
2.7,-6,i,-8,-5.2,-3.8,.,0.64,-8,COc1ccccc1C(=O)Nc1nnc(S(=O)(=O)N2CCCCC2)s1
-0.5,.,.,.,.,.,11%,0.68,.,CCCN(CCC)S(=O)(=O)c1ccc(NC(=O)C2CCCO2)cc1 (centres undefined)
.,-2,i,.,2.6,-1.4,.,.,-3,C[C@@H]1CCCCO[C@H](CN(C)C(=O)Cc2ccccc2)[C@H](C)CN([C@H](C)CO)C(=O)c2cc(NS(=O)(=O)c3cn(C)cn3)ccc2O1
.,1,i,.,-1.3,-2.3,.,.,2,C[C@H]1CN([C@@H](C)CO)C(=O)c2cc(C3=CCCC3)cnc2O[C@H]1CN(C)C
-2.5,14,i,33,-4.4,-1.0,-7%,.,11,C/C(=N\N1CCN(c2ccccc2)CC1)c1ccncc1
0.1,2,i,3,9.0,-1.3,-18%,0.63,11,O=C1CCCN1CC(O)CS(=O)(=O)Cc1ccc(Cl)cc1Cl (centres undefined)
10,12,i,.,11,-2.5,.,.,6,CN(C)C(=O)c1cccc(-c2cnc3c(NC=O)cc(-c4cc(F)c(F)c(F)c4)cn23)c1
3.0,.,.,.,.,.,31%,0.68,.,Cc1cc(C)c(NC(=O)C2CCCN2CCC(C)C)c(C)c1 (centres undefined)
.,4,i,.,-4.4,-7.6,.,.,13,C[C@H](CO)N1C[C@H](C)[C@H](CN(C)Cc2cccc(C(=O)O)c2)OCc2ccccc2-c2c(n(C)c3ccccc23)C1=O
.,2,i,.,1.5,-0.1,.,.,3,C[C@H](CO)N1C[C@H](C)[C@H](CN(C)C(=O)CCCN(C)C)OCCCC[C@H](C)Oc2ccc(NC(=O)C3CCCCC3)cc2C1=O
-0.6,.,.,10,.,.,1%,0.71,.,COc1cc2c(=O)n(Cc3ccccc3)c(=O)n(CC(=O)NCCc3ccccc3)c2cc1OC
-0.4,.,.,-10,.,.,0%,0.75,.,CC1(C)CC(=O)C2=C(C1)N(c1ccc(F)cc1)C(=O)NC2(C(F)(F)F)C(F)(F)F
.,1,i,.,1.4,-2.4,.,.,-3,COc1ccc(NC(=O)N(C)C[C@@H]2Oc3ccc(NC(=O)NC4CCCCC4)cc3CC(=O)N([C@H](C)CO)C[C@@H]2C)cc1
0.0,4,i,-4,0.0,0.6,.,0.62,0,N#CCC(=O)N1CCN(Cc2ccc3c(c2)OCO3)CC1
-2.7,-1,i,.,-3.1,-0.6,1%,.,-1,O=C(NCc1ccc(F)cc1)C1CCN(S(=O)(=O)c2ccc(N3CCCC3=O)cc2)CC1
1.0,.,.,.,.,.,-3%,0.69,.,CCOC(=O)Cc1csc(NC(=O)CSc2nnc(-c3ccc(OC)cc3)n2C)n1
-0.7,-5,i,-4,0.0,-1.8,.,0.64,-5,O=C1CCCN1CC(O)CS(=O)(=O)Cc1ccc(Cl)cc1 (centres undefined)
1.0,11,i,-5,1.4,-6.8,0%,0.67,12,CCCCn1c(N)c(N(C(=O)CSc2nnc(C)n2-c2ccccc2)C2CCCC2)c(=O)[nH]c1=O

An excerpt of these results, with values under each structure.
Order of values – HNF4A DNA FP, rRNA inh HTS, FGF22 binding, ALR inh, rRNA inh HTS RFP, AF4-AF9 inh, Vif TR-FRET, Ecoli growth, rRNA inh HTS OD600
> C[C@H](CO)N1C[C@H](C)[C@H](CN(C)Cc2cccc(C(=O)O)c2)OCc2ccccc2-c2c(n(C)c3ccccc23)C1=O
    ., 4, i, ., -4.4, -7.6, ., ., 13
> CCOC(=O)Cc1csc(NC(=O)CSc2nnc(-c3ccc(OC)cc3)n2C)n1
    1.0, ., ., ., ., ., -3%, 0.69, .
> CN(C)C(=O)c1cccc(-c2cnc3c(NC=O)cc(-c4cc(F)c(F)c(F)c4)cn23)c1
    10, 12, i, ., 11, -2.5, ., ., 6

3 consecutive records from above, quoted:
HNF4A DNA FP,rRNA inh HTS,FGF22 binding,ALR inh,rRNA inh HTS RFP,AF4-AF9 inh,Vif TR-FRET,Ecoli growth,rRNA inh HTS OD600,smiles
1.0,.,.,.,.,.,-3%,0.69,.,CCOC(=O)Cc1csc(NC(=O)CSc2nnc(-c3ccc(OC)cc3)n2C)n1
-0.7,-5,i,-4,0.0,-1.8,.,0.64,-5,O=C1CCCN1CC(O)CS(=O)(=O)Cc1ccc(Cl)cc1 (centres undefined)
1.0,11,i,-5,1.4,-6.8,0%,0.67,12,CCCCn1c(N)c(N(C(=O)CSc2nnc(C)n2-c2ccccc2)C2CCCC2)c(=O)[nH]c1=O
